Screening data deposited in PubChem BioAssay by National Center for Advancing Translational Sciences (NCATS).
SARS PLP yeast = qHTS of Yeast-based Assay for SARS-CoV PLP. 330,000 tested, 0.19% active. S. cerevisiae expressing SARS-CoV PLpro, growth rescue; control for the full effect not named in the record. Potency, µM (highest dose often 32.9 µM), inactives show at the top dose activity, positive = growth rescue; active means well fitted rising curve with a large enough effect; inconclusive means small, poorly fitted or top-dose-only effect; inactive means no such curve, though single readings can be large or run the other way; further: 0% is about no effect; nearly all actives have a fitted effect of over 55% in size; growth read by luminescence after 48 h
NS1 inh = qHTS Assay for Inhibitors of Influenza NS1 Protein Function | AID 2326, 2010 | S. cerevisiae slowed by influenza A NS1, growth recovery by OD600 | Potency, µM (doses to about 46.1 µM), without a hit: at the highest dose activity, positive = more growth | 270,000 tested, 0.4% active; active means well fitted rising curve with a large enough effect; inconclusive means small, poorly fitted or top-dose-only effect; inactive means no such curve, though single readings can be large or run the other way; further: nearly all actives have a fitted effect of over 50% in size
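Recovery from NS1-induced slow growth read by OD600 in budding yeast switched to galactose assay medium (pH 6.0, -URA) at 1:100 dilution. Compound 23 nl per well; the matching strain lacking NS1 serves as control.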
Cruzain inh noDet = qHTS Assay for Promiscuous and Specific Inhibitors of Cruzain (without detergent); Cruzipain (Trypanosoma cruzi), P25779; purified cruzain, Z-FR-AMC fluorescence, no detergent; Potency, µM, for inactives: max response, negative = inhibition, usual class: inhibitors; 200,000 tested, 2.3% active; AID 1476, 2009;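 further: plate controls were enzyme without inhibitor for no effect and buffer without enzyme for full effect; nearly all actives have a fitted effect of over 40% in size; top concentration of the series not given in the record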
Target sequence (P25779 123-467 limits assumed): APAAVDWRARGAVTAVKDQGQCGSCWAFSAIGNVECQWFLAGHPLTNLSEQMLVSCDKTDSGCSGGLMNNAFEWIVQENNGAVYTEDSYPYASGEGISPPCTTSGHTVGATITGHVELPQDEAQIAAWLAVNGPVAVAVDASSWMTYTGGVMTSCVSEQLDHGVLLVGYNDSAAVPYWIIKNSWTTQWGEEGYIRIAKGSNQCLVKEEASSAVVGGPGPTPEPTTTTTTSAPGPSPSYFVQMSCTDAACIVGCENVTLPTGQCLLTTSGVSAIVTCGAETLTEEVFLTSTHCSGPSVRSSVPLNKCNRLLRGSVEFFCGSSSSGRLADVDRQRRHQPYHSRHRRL
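Detergent-free condition (0.00005% Triton X-100) in acetate buffer pH 5.5 with DTT. 1.5 nM enzyme and compound were pre-mixed 15 min, then 2 uM Z-FR-AMC substrate added; reaction progress from fluorescence change between first and third reads (60 s).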
LASV entry inh = qHTS for Inhibitors of binding or entry into cells for Lassa Virus; Potency, µM (titrated, usually from 37.9 µM), for inactives: top-dose activity change, negative = inhibition, usual class: inhibitors; 300,000 tested, 1.2% active; Lassa virus pseudotype entry inhibition, cell reporter; control for the full effect not named in the record; active means well fitted inhibition curve with a large enough effect; inconclusive means small, poorly fitted or top-dose-only effect, or effect the other way; inactive means flat fitted curve, though single readings scatter; tested in HEK293 cells; further: on the % scale 0 is the no-effect control and ±100 the full control effect; nearly all actives have a fitted effect of over 50% in size; luciferase read-out
MARV entry inh = qHTS for inhibitors of binding or entry into cells for Marburg Virus. AID 540276, 2011. 300,000 tested, 1.8% active. Marburg virus pseudotyped entry inhibition, cell reporter; control for the full effect not named in the record; about a third of the inactives were read at about 46 µM. Potency, µM (doses to about 37.8 µM), for the others: at the top dose activity change, negative = inhibition, usual class: inhibitors; active = well fitted inhibition curve with a large enough effect; inconclusive = small, poorly fitted or top-dose-only effect, or effect the other way; inactive = flat fitted curve, though single readings scatter; tested in HEK293 cells; about a fifth of its hits are not listed in these tables; further: on the % scale 0 is the no-effect control and ±100 the full control effect; luciferase read-out
RE007 growth inh = qHTS Assay for Inhibitors of the HIV-1 protein Vpr; S. pombe RE007 Vpr strain, BacTiter-Glo ATP luminescence, 24 h; control for the full effect not named in the record; Potency, µM (titrated, usually from 92.2 µM), inactives show top-dose activity change, negative = less growth; 360,000 tested, 0.21% active; AID 651644, 2012; active = well fitted falling curve with a large enough effect; inconclusive = small, poorly fitted or top-dose-only effect; inactive = no such curve, though single readings can be large or run the other way;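 further: on the % scale 0 is the no-effect control and ±100 the full control effect; nearly all actives have a fitted effect of over 50% in size; the assay follows cell death caused by Vpr and the record does not say whether a fall means rescue or toxicity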
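Fission yeast RE007 carrying one integrated HIV-1 vpr copy, seeded at OD 0.01 in PMG+AL medium with 23 nL pinned compound. Grown 24 h at 30 degrees; viability read by BacTiter-Glo luminescence after 5 min.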
2A StopGo = High Throughput Screening for Foot and Mouth Disease Virus Antivirals | human cells with a luciferase reporter of 2A StopGo recoding; control for the full effect not named in the record | Potency, µM (titrated, usually from 57.9 µM), inactives show at the top dose signal change, negative = less light | 410,000 tested, 1.2% active | AID 1159524, 2015; active = well fitted falling curve with a large enough effect; inconclusive = small, poorly fitted or top-dose-only effect; inactive = no such curve, though single readings can be large or run the other way; tested in HEK293T cells; further: on the % scale 0 is the no-effect control and ±100 the full control effect; nearly all actives have a fitted effect of over 45% in size; luciferase light after 4 h
Cruzain Triton = qHTS Assay for Promiscuous and Specific Inhibitors of Cruzain (with detergent); Cruzipain (Trypanosoma cruzi), P25779; purified cruzain, Z-FR-AMC fluorescence, 0.01% Triton; Potency, µM, without a hit: max response, negative = inhibition, usual class: inhibitors; 200,000 tested, 0.43% active;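 further: plate controls were neutral wells for no effect and buffer without enzyme for full effect; nearly all actives have a fitted effect of over 40% in size; top concentration of the series not given in the record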
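Z-FR-AMC hydrolysis (2 uM substrate) by cruzain (1.5 nM) monitored kinetically at ex 360/em 450 nm after 15 min room-temperature compound exposure; 0.01% Triton X-100, pH 5.5, 5 mM DTT.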
* hit, by the source's call; ? = inconclusive; / = not tested or not shown; & = joins results of further samples; [ ] = another dose, or the depositor's remark. Unless noted, the call rests on the fitted dose curve; in most records, active means well fitted curve in the direction sought with a large enough effect; inconclusive means small, poorly fitted or top-dose-only effect, or another doubt; inactive means no such curve, though single readings can be large; an effect the other way counts as inactive or inconclusive. Potency means the concentration at half of the fitted maximal effect.

entry	structure	SARS PLP yeast	NS1 inh	Cruzain inh noDet	LASV entry inh	MARV entry inh	RE007 growth inh	2A StopGo	Cruzain Triton
1	Nc1nnnn1/N=C/C(Br)=C/c1ccccc1	-9%	-63%	?	?	5µM*	-7%	14µM*	1.3%
2	CC1(C)CC(NC(=O)c2c(N)no[n+]2[O-])CC(C)(C)N1	5%	/	/	?	?	28%	-4%	/
3	CN(C)CCCOc1nn(Cc2ccccc2)c2ccccc12	9%	17%	-6%	/	/	3%	?	3.9%
4	O=c1cc(N2CCc3ccccc3C2)[nH]c(=O)n1-c1ccc(Cl)cc1	12%	2%	?	?	-14%	-2%	-6%	4.1%
5	O=C1CC(N2CCN(c3ccc(S(=O)(=O)N4CCOCC4)cc3)CC2)C(=O)N1Cc1ccccc1 (stereo not given)	-14%	-14%	?	0%	5%&5%[46.1 µM]	1%	?	4.2%
6	Cc1ccc(NC(=S)Nc2ccccn2)cc1C	2%	-4%	/	/	/	-10%	0%	/
7	COc1ccc(C)cc1NC(=O)C1CCN(S(=O)(=O)c2c(C)noc2C)CC1	-2%	2%	/	/	/	-2%	-11%	/
8	COC(=O)c1c(C)[nH]c(C(=O)C(C)OC(=O)c2cnc(C)cn2)c1C (stereo not given)	7%	/	/	-2%	-11%	0%	-9%	/
9	CCOC(=O)C1=C2SCC(=O)N2C(N)=C(C#N)C1	?	11%	2%	-1%	1%	-7%	7%	-0.1%
10	CCC(C)(C)NC(=O)C(c1ccccc1Cl)N(C(=O)CCC(=O)Nc1cc(C)on1)C1CC1 (stereo not given)	-1%	3%	/	-1%	?	2%	-14%	/
11	NC(=NCCc1c[nH]c2ccccc12)NS(=O)(=O)c1cc(F)ccc1F	1%	-4%	4%	?	-19%	2%	-26%	-4.5%
12	CCc1ccccc1N1CSC2=C(C#N)C(c3cc(OC)c(OC)cc3OC)CC(=O)N2C1 (stereo not given)	-1%	10µM*	18%	3%	?	-6%	17%	-9.6%
13	Cc1ccc(OCC(=O)N(Cc2ccc(C)o2)C2CCS(=O)(=O)C2)cc1 (stereo not given)	4%	-9%	/	/	/	2%	-24%	/
14	COc1cccc(/C=N/n2c(N)c(S(=O)(=O)c3cccs3)c3nc4ccccc4nc32)c1OC	3%	-1%	?	-30%	-24%	-10%	17%	2.1%
15	O=C(Cc1ccc(F)cc1)OCn1nnc2ccccc2c1=O	3%	-1%	/	9%[46.1 µM]	17%[46.1 µM]	-19%	12%	/
16	COc1cc(CC(=O)OC2CCOC2=O)cc(OC)c1OC (stereo not given)	-4%	3%	-8%	3%	-1%	0%	7%	8.7%
17	COc1ccccc1NC(=O)c1cccc(NC(=O)c2ccco2)c1	-14%	-54%	-14%	-20%	?	1%	-14%	-2.2%
18	CN(C)c1ccc(C=c2c3cc([N+](=O)[O-])ccc3n3c2cc(-c2ccccc2)[n+]3C)cc1	/	/	/	8.9µM*	?	?	32µM*	/
19	COc1ccc(N2CCN(S(=O)(=O)CCNC(=O)COc3ccccc3F)CC2)cc1	/	/	1%	-1%[46.1 µM]	/	/	-1%	-1.6%
20	COc1ccc(CNC(=O)CCc2ccc(S(=O)(=O)N3CCCCCC3)cc2)cc1OC	-7%	/	/	-10%	-30%	-6%	?	/
21	CCOC(=O)c1cc(C)n(S(=O)(=O)c2ccc(C)cc2)c1C	-24%	-15%	-1%	?	-19%	2%	0%	-5.1%
22	CC(C(=O)c1ccc(-c2ccccc2)cc1)[n+]1cccc(NC(=O)c2ccccc2)c1 (stereo not given)	0%	-52%	/	-6%[46.1 µM]	0%[46.1 µM]	-11%	0%	/
23	COc1ccccc1CNS(=O)(=O)c1c(C)[nH]c(C)c1C(=O)N1CCCC1	3%	-1%	/	2%[46.1 µM]	?	-8%	-4%	/
24	Cc1cccnc1NC(=O)C1CCN(S(=O)(=O)c2cccs2)CC1	25%	-7%	-3%	8%	-13%	-3%	-6%	3.6%
25	CCOC(=O)C(CSCC(=O)c1ccc(Cl)cc1)NC(=O)OC(C)(C)C (stereo not given)	-5%	-90%	-1%	-1%	9%	0%	-16%	2.2%

Excerpt, entries 10–11
entry	structure	SARS PLP yeast	NS1 inh	Cruzain inh noDet	LASV entry inh	MARV entry inh	RE007 growth inh	2A StopGo	Cruzain Triton
10	CCC(C)(C)NC(=O)C(c1ccccc1Cl)N(C(=O)CCC(=O)Nc1cc(C)on1)C1CC1 (stereo not given)	-1%	3%	/	-1%	?	2%	-14%	/
11	NC(=NCCc1c[nH]c2ccccc12)NS(=O)(=O)c1cc(F)ccc1F	1%	-4%	4%	?	-19%	2%	-26%	-4.5%

Returning to the listing; the five compounds before the break are reprinted first.
entry	structure	SARS PLP yeast	NS1 inh	Cruzain inh noDet	LASV entry inh	MARV entry inh	RE007 growth inh	2A StopGo	Cruzain Triton
21	CCOC(=O)c1cc(C)n(S(=O)(=O)c2ccc(C)cc2)c1C	-24%	-15%	-1%	?	-19%	2%	0%	-5.1%
22	CC(C(=O)c1ccc(-c2ccccc2)cc1)[n+]1cccc(NC(=O)c2ccccc2)c1 (stereo not given)	0%	-52%	/	-6%[46.1 µM]	0%[46.1 µM]	-11%	0%	/
23	COc1ccccc1CNS(=O)(=O)c1c(C)[nH]c(C)c1C(=O)N1CCCC1	3%	-1%	/	2%[46.1 µM]	?	-8%	-4%	/
24	Cc1cccnc1NC(=O)C1CCN(S(=O)(=O)c2cccs2)CC1	25%	-7%	-3%	8%	-13%	-3%	-6%	3.6%
25	CCOC(=O)C(CSCC(=O)c1ccc(Cl)cc1)NC(=O)OC(C)(C)C (stereo not given)	-5%	-90%	-1%	-1%	9%	0%	-16%	2.2%
26	N/C(=N\OC(=O)c1ccc(Cl)cc1)c1ccc(Cl)cc1	-94%	3%	?	?	?	?	14%	2.4%
27	Cn1c(CN2CCOCC2)nc2cc(NC(=O)c3ccccc3[N+](=O)[O-])ccc21	/	/	-19%	7%[46.1 µM]	-16%[46.1 µM]	/	1%	0.9%
28	CCc1nc2ccccc2c2nc3ccccc3n12	-13%	7%	1%	-22%	-25%[46.1 µM]	2%	0%	-4.0%
29	O=C(CNC(=S)N(CCCN1CCOCC1)Cc1cccs1)NC1CCCCC1	1%	0%	/	13%[46.1 µM]	-21%[46.1 µM]	-7%	-3%	/
30	O=[N+]([O-])c1ccc(OCCOc2ccccc2/C=N/n2cnnc2)cc1	1%	-1%	/	/	/	5%	-16%	/
31	CC(C)Cn1c(SCC(N)=O)nnc1-c1cccc(S(=O)(=O)N2CCOCC2)c1	2%	/	/	9%	1%	-9%	-16%	/
32	OC(CSc1ccc(F)cc1)CN1CCN(c2ccccc2)CC1 (stereo not given)	0%	2%	/	25%[46.1 µM]	5%[46.1 µM]	2%	-15%	/
33	CCOc1ccc(NS(=O)(=O)c2cc(C(=O)N3CCN(c4ccccc4O)CC3)ccc2Cl)cc1	-6%	/	/	-5%	-21%	9%	5%	/
34	Cc1ccc(S(=O)(=O)N2CCN(S(=O)(=O)N3CCOCC3)CC2)c(C)c1	4%	9%	8%	-1%	5%	4%	/	2.0%
35	Cc1cc(OCC(=O)N2CCN(c3ccccn3)CC2)c(C)cc1Br	3%	-17%	/	-8%	-4%	-7%	?	/
36	COc1ccc(S(=O)(=O)N2CCCC2C(=O)NCc2cccs2)cc1 (stereo not given)	6%	1%	-1%	19%	0%	7%	4%	-0.6%
37	Cn1c(-c2cc3c(C(F)(F)F)nn(C)c3s2)n[nH]c1=S	?	22%	-11%	-3%	?	28%	-15%	-3.2%
38	Clc1cccc(-c2nc(NCC3CCCO3)c3ccccc3n2)c1 (stereo not given)	-3%	-59%	/	?	-2%[46.1 µM]	-12%	-22%	/
39	CCCCOC(=O)CCc1n[nH]c(=O)[nH]c1=O	-4%	2%	-5%	5%	1%[46.1 µM]	0%	-13%	0.6%
40	CCO[C@@H]1OC(C(=O)N2CCOCC2)=C[C@H](c2coc3ccccc3c2=O)[C@H]1CCCO	0%	-3%	/	/	/	-4%	-5%	/
41	Fc1cccc(Cc2noc(CN3CCN(c4cnccn4)CC3)n2)c1	-1%	-34%	/	/	/	-21%	-23%	/
42	O=C(CCCn1c(=S)[nH]c2ccc(Br)cc2c1=O)N1CCN(c2ccccn2)CC1	-1%	-32%	-7%	-16%	?	4%	-12%	-3.2%
43	Cc1ccccc1N1CCN(S(=O)(=O)c2nnc(NC(=O)c3ccc(F)cc3)s2)CC1	0%	0%	/	12%[46.1 µM]	-1%[46.1 µM]	-7%	-9%	/
44	Cc1cccc(OCC(=O)N(Cc2ccc(N(C)C)cc2)Cc2ccco2)c1C	/	/	-29%	?	?	/	?	-5.4%
45	O=C(O)CCc1nnc(SCC(=O)Nc2cccc(C(F)(F)F)c2)[nH]c1=O	2%	/	/	-14%	4%[46.1 µM]	13%	-1%	/
46	CCn1c(=O)n(CC)c2cc(N3CCCC3)c(NC(=O)c3ccc(OC)c(Br)c3)cc21	0%	2%	/	/	/	-15%	0%	/
47	O=C(CCc1ccccc1)OCC(=O)c1cccc([N+](=O)[O-])c1	0%	/	/	-16%	3%	-11%	1%	/
48	CCOCCCNCc1ccc(OCc2ccccc2Cl)cc1	-20%	-23%	-8%	-23%	?	11%	-19%	-0.7%
49	CCOC(=O)c1nc2ccccc2c(=O)n1-c1ccc(C)cc1	0%	-5%	-4%	15%	-1%[46.1 µM]	-10%	-23%	5.8%
50	O=C(NCCn1cccn1)c1ccc(OC2CCN(CCc3ccccc3)CC2)cc1	0%	-2%	/	-2%[46.1 µM]	16%[46.1 µM]	-3%	20%	/

Compounds as they come. Share with any hit: about 4.7%.
